High-throughput results from PubChem.
NS1 inh – qHTS Assay for Inhibitors of Influenza NS1 Protein Function | S. cerevisiae slowed by influenza A NS1, growth recovery by OD600 | Potency, µM (doses to about 46.1 µM), for the others: top-dose activity, positive = more growth | 270,000 tested, 0.4% active | AID 2326, 2010; also: actives are rising curves; nearly all actives have a fitted effect of over 50% in size
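Recovery from NS1-induced slow growth read by OD600 in budding yeast switched to galactose assay medium (pH 6.0, -URA) at 1:100 dilution. Compound 23 nl per well; the matching strain lacking NS1 serves as control.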
Cruzain inh Det – qHTS Assay for Promiscuous and Specific Inhibitors of Cruzain (with detergent). 200,000 tested, 0.43% active. AID 1478, 2009. Potency, µM, for the others: max response, negative = inhibition, hits mostly inhibitors. purified cruzain, Z-FR-AMC fluorescence, 0.01% Triton. Cruzipain (Trypanosoma cruzi), P25779; active = well fitted curve in the direction sought with a large enough effect; inconclusive = small, poorly fitted or top-dose-only effect, or another doubt; inactive = no such curve, though single readings can be large; an effect the other way counts as inactive or inconclusive;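 also: plate controls were neutral wells for no effect and buffer without enzyme for full effect; nearly all actives have a fitted effect of over 40% in size; top concentration of the series not given in the record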
Target sequence (P25779 123-467 limits assumed): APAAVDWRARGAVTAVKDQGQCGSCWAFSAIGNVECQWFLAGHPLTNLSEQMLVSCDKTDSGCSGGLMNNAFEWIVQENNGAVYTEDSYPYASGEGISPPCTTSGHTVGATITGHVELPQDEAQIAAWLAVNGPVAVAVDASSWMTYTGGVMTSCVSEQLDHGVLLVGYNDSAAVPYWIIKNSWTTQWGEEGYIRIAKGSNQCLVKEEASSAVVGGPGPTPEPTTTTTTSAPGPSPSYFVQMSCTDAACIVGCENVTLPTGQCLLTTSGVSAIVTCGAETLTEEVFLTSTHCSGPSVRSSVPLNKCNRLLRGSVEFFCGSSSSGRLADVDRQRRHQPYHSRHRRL
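Detergent-containing arm of a paired screen for aggregation-based inhibition: 0.01% Triton X-100 present. Cruzain at 1.5 nM cleaved 2 uM Z-FR-AMC at pH 5.5 with 5 mM DTT; AMC fluorescence gain over 60 s measured activity.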
RE007 growth inh – qHTS Assay for Inhibitors of the HIV-1 protein Vpr. S. pombe RE007 Vpr strain, BacTiter-Glo ATP luminescence, 24 h; control for the full effect not named in the record. Potency, µM (series often up to 92.2 µM), for inactives: at the top dose activity change, negative = less growth. 360,000 tested, 0.21% active. AID 651644, 2012; active = well fitted falling curve with a large enough effect; inconclusive = small, poorly fitted or top-dose-only effect; inactive = no such curve, though single readings can be large or run the other way;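 also: % is scaled to controls: 0 for no effect and ±100 for the full control effect; nearly all actives have a fitted effect of over 50% in size; the assay follows cell death caused by Vpr and the record does not say whether a fall means rescue or toxicity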
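Fission yeast strain RE007, carrying one chromosomally integrated HIV-1 vpr copy, was seeded at OD 0.01 in PMG+AL medium with 23 nL pinned compound. After 24 h at 30 °C and 99% humidity, viability was read by BacTiter-Glo luminescence.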
2A StopGo – High Throughput Screening for Foot and Mouth Disease Virus Antivirals. AID 1159524, 2015. Potency, µM (highest dose often 57.9 µM), for inactives: top-dose signal change, negative = less light. human cells with a luciferase reporter of 2A StopGo recoding; control for the full effect not named in the record. 410,000 tested, 1.2% active; active = well fitted falling curve with a large enough effect; inconclusive = small, poorly fitted or top-dose-only effect; inactive = no such curve, though single readings can be large or run the other way; tested in HEK293T cells; also: % is scaled to controls: 0 for no effect and ±100 for the full control effect; nearly all actives have a fitted effect of over 45% in size; luciferase light after 4 h
Marburg entry inh – qHTS for inhibitors of binding or entry into cells for Marburg Virus | Marburg virus pseudotyped entry inhibition, cell reporter; control for the full effect not named in the record; about a third of the inactives were read at about 46 µM | 300,000 tested, 1.8% active | Potency, µM (top dose mostly 37.8 µM), without a hit: at the highest dose activity change, negative = inhibition, actives largely listed as inhibitors | AID 540276, 2011; active = well fitted inhibition curve with a large enough effect; inconclusive = small, poorly fitted or top-dose-only effect, or effect the other way; inactive = flat fitted curve, though single readings scatter; tested in HEK293 cells; about a fifth of its hits are not listed in these tables; also: % is scaled to controls: 0 for no effect and ±100 for the full control effect; luciferase read-out
SARS PLP yeast – qHTS of Yeast-based Assay for SARS-CoV PLP; 330,000 tested, 0.19% active; Potency, µM (highest dose often 32.9 µM), without a hit: at the highest dose activity, positive = growth rescue; S. cerevisiae expressing SARS-CoV PLpro, growth rescue; control for the full effect not named in the record; AID 485353, 2010; also: 0% is about no effect; nearly all actives have a fitted effect of over 55% in size; growth read by luminescence after 48 h
Cruzain noTriton – qHTS Assay for Promiscuous and Specific Inhibitors of Cruzain (without detergent) | AID 1476, 2009 | Potency, µM, for inactives: max response, negative = inhibition, usual class: inhibitors | 200,000 tested, 2.3% active | purified cruzain, Z-FR-AMC fluorescence, no detergent | Cruzipain (Trypanosoma cruzi), P25779; active = well fitted curve in the direction sought with a large enough effect; inconclusive = small, poorly fitted or top-dose-only effect, or another doubt; inactive = no such curve, though single readings can be large; an effect the other way counts as inactive or inconclusive;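 also: plate controls were enzyme without inhibitor for no effect and buffer without enzyme for full effect; nearly all actives have a fitted effect of over 40% in size; top concentration of the series not given in the record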
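Purified cruzain at 1.5 nM, pre-incubated 15 min with compound at room temperature in 100 mM sodium acetate pH 5.5, 5 mM DTT, 0.00005% Triton X-100. Reaction started with 2 uM Z-FR-AMC; AMC fluorescence increase over 60 s gives rate.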
Lassa entry inh – qHTS for Inhibitors of binding or entry into cells for Lassa Virus; Lassa virus pseudotype entry inhibition, cell reporter; control for the full effect not named in the record; AID 540256, 2011; 300,000 tested, 1.2% active; Potency, µM (doses to about 37.9 µM), inactives show top-dose activity change, negative = inhibition, usual class: inhibitors; active means well fitted inhibition curve with a large enough effect; inconclusive means small, poorly fitted or top-dose-only effect, or effect the other way; inactive means flat fitted curve, though single readings scatter; tested in HEK293 cells; also: % is scaled to controls: 0 for no effect and ±100 for the full control effect; nearly all actives have a fitted effect of over 50% in size; luciferase read-out
Numbers without * were called inactive; & = joins results of further samples; [ ] = another dose, or the depositor's remark. Unless noted, calls follow the shape of the dose curve; as a rule, active means well fitted rising curve with a large enough effect; inconclusive means small, poorly fitted or top-dose-only effect; inactive means no such curve, though single readings can be large or run the other way. Potency is read from the fitted curve at half-maximal effect. Rows were taken by chance, and some 4.8% of all compounds hit somewhere here.

What do the screens show for `COc1cccc(CN2CCN(C3CCN(c4cccc(C)c4C)CC3)CC2CCO)c1` (stereo not given)?
NS1 inh: -4%; RE007 growth inh: -15%; 2A StopGo: inconclusive; SARS PLP yeast: -1%

How did O=C(COc1nsnc1N1CCOCC1)Nc1cccc(Cl)c1 do in these assays?
NS1 inh: -27%; RE007 growth inh: 10%; 2A StopGo: -30%; Marburg entry inh: 1%; SARS PLP yeast: -1%; Lassa entry inh: 0%

Results for CCOC(=O)c1c(NC(C)=O)c2c3c(sc2n1Cc1nc(-c2cccc(Cl)c2)oc1C)CCCC3 ?
Cruzain inh Det: 0.1%; 2A StopGo: -18%; Marburg entry inh: -11%[46.1 µM]; Cruzain noTriton: -9%

Results for O=C(/C=C/c1c(F)cccc1Cl)N1CCc2ccccc2C1 ?
NS1 inh: -49%; RE007 growth inh: 2%; 2A StopGo: 28%; Marburg entry inh: inconclusive; SARS PLP yeast: -7%; Lassa entry inh: inconclusive

Results for Cc1cc(N)n(-c2ncnc3scc(-c4ccccc4)c23)n1 ?
NS1 inh: 4%; Cruzain inh Det: 0.3%; RE007 growth inh: -4%; 2A StopGo: -23%; Marburg entry inh: inconclusive; SARS PLP yeast: -5%; Cruzain noTriton: 10%; Lassa entry inh: 1%

Results for CCN(Cc1ccccc1)C(=O)c1c[nH]c2ccc(S(=O)(=O)N(C)CCC#N)cc2c1=O ?
NS1 inh: -13%; Cruzain inh Det: -4.0%; RE007 growth inh: 7%; 2A StopGo: 4%; Marburg entry inh: 2%; SARS PLP yeast: 19%; Cruzain noTriton: -5%; Lassa entry inh: inconclusive

Results for CN(c1ccccc1C(=O)N1CCc2ccccc2C1)S(C)(=O)=O ?
NS1 inh: -4%; Cruzain inh Det: 2.0%; RE007 growth inh: -6%; 2A StopGo: 22%; Marburg entry inh: 9%; SARS PLP yeast: -1%; Cruzain noTriton: 11%; Lassa entry inh: 16%

Results for COc1ccc(N2CCN(C(=O)c3ccc4c(c3)CC(c3ccccc3)OC4=O)CC2)cc1 (stereo not given) ?
RE007 growth inh: 0%; 2A StopGo: -27%; Marburg entry inh: -14%[46.1 µM]; SARS PLP yeast: 1%; Lassa entry inh: inconclusive

Results for Cc1ccc(Nc2c(-c3ccc(N4CCOCC4)cc3)nc3ncccn23)cc1C ?
NS1 inh: inconclusive; Cruzain inh Det: -2.8%&-8.5%; RE007 growth inh: -5%; 2A StopGo: 0%&-27%; Marburg entry inh: -1%[46.1 µM]; SARS PLP yeast: -11%; Cruzain noTriton: inconclusive; Lassa entry inh: -1%[46.1 µM]

How did CCCCN(CCCC)CCC(O)c1cc2c(Cl)cc(Cl)cc2c2cc(C(F)(F)F)ccc12 (stereo not given) do in these assays?
Cruzain inh Det: 6.8%; RE007 growth inh: 3%[18.4 µM]; 2A StopGo: inconclusive; Cruzain noTriton: -8%

Results for CC1CCc2sc(C(=O)N(C)CC(=O)Nc3cccc(F)c3)cc2C1 (stereo not given) ?
NS1 inh: -14%; RE007 growth inh: -3%; 2A StopGo: 5%; Marburg entry inh: 1%; SARS PLP yeast: -15%; Lassa entry inh: -19%

What do the screens show for `CC(=O)N/C(=N\OCc1ccccc1Cl)c1nonc1NC(C)=O`?
NS1 inh: -8%; Cruzain inh Det: -0.3%; RE007 growth inh: 2%; 2A StopGo: 12%; Marburg entry inh: -7%; SARS PLP yeast: -3%; Cruzain noTriton: 4%; Lassa entry inh: -4%

Results for Cc1cc(C)nc(N2N=C(C(F)(F)F)CC2=O)n1 ?
NS1 inh: 1%; RE007 growth inh: 5%; 2A StopGo: -5%; SARS PLP yeast: 2%

What do the screens show for `CCN(CC)CC(=O)Nc1sc(C)cc1C(=O)c1ccc(C)cc1`?
NS1 inh: -3%; RE007 growth inh: -19%; 2A StopGo: -19%; Marburg entry inh: inconclusive; SARS PLP yeast: 21%; Lassa entry inh: -9%

How did Brc1cccc(CSc2nnc(-c3ccncc3)o2)c1 do in these assays?
RE007 growth inh: -10%; 2A StopGo: -12%; Marburg entry inh: 16%; SARS PLP yeast: -2%; Lassa entry inh: -7%

Results for COc1ccc(N2CCN(C(=O)[C@H](C)NC(=O)c3ccccc3Cl)CC2)cc1 ?
NS1 inh: 5%; RE007 growth inh: 34%; 2A StopGo: 24%; Marburg entry inh: inconclusive; SARS PLP yeast: 1%; Lassa entry inh: -29%[46.1 µM]

What do the screens show for `COc1ccc(NC(=O)CSc2nc(-c3cccs3)cc(C(F)(F)F)c2C#N)cc1`?
Cruzain inh Det: -2.5%; 2A StopGo: -16%; Marburg entry inh: 4%[46.1 µM]; Cruzain noTriton: 2%; Lassa entry inh: -9%[46.1 µM]

What do the screens show for `CNC(=O)c1ccc(CNC(=O)OCC(F)(F)F)cc1`?
NS1 inh: inconclusive; Cruzain inh Det: 1.2%; RE007 growth inh: 24%; 2A StopGo: 9%; Marburg entry inh: 5%; SARS PLP yeast: 3%; Cruzain noTriton: -10%; Lassa entry inh: -1%

What do the screens show for `CCC1CSC(Nc2ccc(C(=O)/C=C/c3ccc(OC)c(OC)c3)cc2)=N1` (stereo not given)?
NS1 inh: -34%; Cruzain inh Det: inconclusive; RE007 growth inh: -20%; 2A StopGo: 25µM*; Marburg entry inh: inconclusive; SARS PLP yeast: -41%; Cruzain noTriton: inconclusive; Lassa entry inh: 23µM*

Results for COc1ccc(OC)c(CCNc2nccn(-c3ccc(C)c(C)c3)c2=O)c1 ?
Cruzain inh Det: -2.5%; 2A StopGo: 4%; Cruzain noTriton: 2%; Lassa entry inh: -5%[46.1 µM]

What do the screens show for `O=C(Cc1ccccc1)Nc1ccc(N2CCN(Cc3ccccc3F)CC2)cc1`?
NS1 inh: 1%; Cruzain inh Det: 1.0%; RE007 growth inh: -13%; 2A StopGo: -17%; Marburg entry inh: 25%; SARS PLP yeast: -4%; Cruzain noTriton: 1%; Lassa entry inh: -12%

Results for COCC(=O)OCC(=O)Nc1cc(C(C)(C)C)nn1-c1ccccc1 ?
NS1 inh: 2%; Cruzain inh Det: 2.7%; RE007 growth inh: 5%; 2A StopGo: -4%; Marburg entry inh: 10%; SARS PLP yeast: 5%; Cruzain noTriton: inconclusive; Lassa entry inh: -2%

How did COc1ccc(N2CCN(CCC(N)=O)CC2)cc1 do in these assays?
NS1 inh: 0%; Cruzain inh Det: 3.0%; RE007 growth inh: 7%; 2A StopGo: -15%; Marburg entry inh: 0%; SARS PLP yeast: 10%; Cruzain noTriton: 0%; Lassa entry inh: 4%

Results for O=C1C2C3C=CC(C4CC34)C2C(=O)N1CCc1ccccc1 (stereo not given) ?
NS1 inh: -2%; Cruzain inh Det: -2.7%; RE007 growth inh: -1%; 2A StopGo: 35%[activator]; Marburg entry inh: inconclusive; SARS PLP yeast: 1%; Cruzain noTriton: -1%; Lassa entry inh: inconclusive

How did S=c1[nH]nc(CCc2ccccc2)n1-c1ccccc1 do in these assays?
NS1 inh: 3%; Cruzain inh Det: -1.7%; RE007 growth inh: -11%; 2A StopGo: -11%; Marburg entry inh: 9%; SARS PLP yeast: -5%; Cruzain noTriton: -7%; Lassa entry inh: 4%

How did Cc1[nH]c(C(=O)O)c(C)c1C(=O)OC(C)C do in these assays?
NS1 inh: 1%; Cruzain inh Det: 3.8%; RE007 growth inh: 20%; 2A StopGo: 6%; Marburg entry inh: 16%; SARS PLP yeast: 0%; Cruzain noTriton: -4%; Lassa entry inh: 10%

How did O=c1n(Cc2ccccc2Cl)c2sc3c(c2c2ncnn12)CCCC3 do in these assays?
NS1 inh: -2%; Cruzain inh Det: 0.9%; RE007 growth inh: 18%; 2A StopGo: inconclusive; Marburg entry inh: -1%&-1%[46.1 µM]; SARS PLP yeast: 8%; Cruzain noTriton: 2%; Lassa entry inh: -6%

How did CCOc1ccc(N(CC(=O)O)S(=O)(=O)c2ccc(OC)c(OC)c2)cc1 do in these assays?
NS1 inh: 4%; Cruzain inh Det: 11%; RE007 growth inh: -3%; 2A StopGo: 9%; Marburg entry inh: -2%; SARS PLP yeast: -3%; Cruzain noTriton: 4%; Lassa entry inh: 7%

What do the screens show for `CCN(CC)S(=O)(=O)c1ccc(N=Cc2c(C)c(C#N)c(=O)n(C)c2O)cc1`?
NS1 inh: 13%; Cruzain inh Det: -6.5%; RE007 growth inh: -2%; 2A StopGo: -8%; Marburg entry inh: inconclusive; SARS PLP yeast: 8%; Cruzain noTriton: 0%; Lassa entry inh: 17%

What do the screens show for `COc1ccc(C(=O)n2nnc3ccccc32)cc1Br`?
NS1 inh: 8%; Cruzain inh Det: -4.8%; RE007 growth inh: 2%; Marburg entry inh: inconclusive; SARS PLP yeast: -1%; Cruzain noTriton: -11%; Lassa entry inh: -30%

What do the screens show for `O=C(C1CC(=O)N(C2CCCC2)C1)N1CCC2(CC1)OCCO2` (stereo not given)?
NS1 inh: -13%; Cruzain inh Det: -0.2%; RE007 growth inh: 3%; 2A StopGo: -5%; Marburg entry inh: -13%; SARS PLP yeast: -2%; Cruzain noTriton: -11%; Lassa entry inh: 3%

How did COc1cccc(C(=O)CN2C(=O)C(C)(C)Oc3ccc(C(=O)N4CCOCC4)cc32)c1 do in these assays?
NS1 inh: -6%; RE007 growth inh: -8%; 2A StopGo: -2%; Marburg entry inh: 21%[46.1 µM]; SARS PLP yeast: 2%; Lassa entry inh: 14%

Results for COc1cc(OC)cc(-n2c(=O)c3sccc3n(Cc3c(C)cc(C)cc3C)c2=O)c1 ?
Cruzain inh Det: -0.6%; 2A StopGo: 4%; Marburg entry inh: -11%[46.1 µM]; Cruzain noTriton: 3%; Lassa entry inh: 1%[46.1 µM]

What do the screens show for `Cn1nc(CSc2ccccc2)c(C=O)c1Cl`?
RE007 growth inh: 16%; 2A StopGo: 59%[activator]; Marburg entry inh: -21%[46.1 µM]; SARS PLP yeast: -9%; Lassa entry inh: -20%

How did Cc1cc(NC(=S)NC(=O)CC(C)C)ccc1Br do in these assays?
NS1 inh: 10%; Cruzain inh Det: -4.3%; RE007 growth inh: -2%; 2A StopGo: 41%[activator]; Marburg entry inh: 11%; SARS PLP yeast: 11%; Cruzain noTriton: -2%; Lassa entry inh: inconclusive
